Sfp inh: blocks B. subtilis Sfp PPTase activity. Q9F4F7. Biochemical Sfp PPTase activity, qHTS. Potency, µM, without a hit: max response, negative = inhibition, usual class: inhibitors. 310,000 compounds, 3.5% hits. AID 1490; active = well fitted inhibition curve with a large enough effect; inconclusive = small, poorly fitted or top-dose-only effect, or another doubt; inactive = no such curve, though single readings can be large or run the other way;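 also: the enzyme is Sfp with the accession as filed and its product quenches rhodamine fluorescence; potency is read from the fitted curve at half-maximal effect; 0% = enzyme reaction without inhibitor and -100% = no enzyme wells; top concentration of the series not given in the record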
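Fluorescence-quenching assay: 15 nM Sfp-PPTase preincubated 15 min at room temperature with compound, then 5 uM rhodamine-CoA and 12.5 uM BHQ-2-labelled YbbR peptide added. Fluorescence (ex 525/em 598 nm) read at start and after 30 min; difference gives rate.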
TRPV1 potentiator: enhances activation of the human vanilloid receptor TRPV1. Q8NER1. TRPV1-expressing cells, Fluo-8 calcium influx, capsaicin EC20 potentiation; host cell line not named in the record; control for the full effect not named in the record. potentiation, % at 8.33 µM. 320,000 compounds, 0.02% hits; active means potentiation above 80%; inconclusive means 30% to 80%; inactive means below 30%; also: 0% is about no effect
Target sequence (Q8NER1 whole entry, looked up): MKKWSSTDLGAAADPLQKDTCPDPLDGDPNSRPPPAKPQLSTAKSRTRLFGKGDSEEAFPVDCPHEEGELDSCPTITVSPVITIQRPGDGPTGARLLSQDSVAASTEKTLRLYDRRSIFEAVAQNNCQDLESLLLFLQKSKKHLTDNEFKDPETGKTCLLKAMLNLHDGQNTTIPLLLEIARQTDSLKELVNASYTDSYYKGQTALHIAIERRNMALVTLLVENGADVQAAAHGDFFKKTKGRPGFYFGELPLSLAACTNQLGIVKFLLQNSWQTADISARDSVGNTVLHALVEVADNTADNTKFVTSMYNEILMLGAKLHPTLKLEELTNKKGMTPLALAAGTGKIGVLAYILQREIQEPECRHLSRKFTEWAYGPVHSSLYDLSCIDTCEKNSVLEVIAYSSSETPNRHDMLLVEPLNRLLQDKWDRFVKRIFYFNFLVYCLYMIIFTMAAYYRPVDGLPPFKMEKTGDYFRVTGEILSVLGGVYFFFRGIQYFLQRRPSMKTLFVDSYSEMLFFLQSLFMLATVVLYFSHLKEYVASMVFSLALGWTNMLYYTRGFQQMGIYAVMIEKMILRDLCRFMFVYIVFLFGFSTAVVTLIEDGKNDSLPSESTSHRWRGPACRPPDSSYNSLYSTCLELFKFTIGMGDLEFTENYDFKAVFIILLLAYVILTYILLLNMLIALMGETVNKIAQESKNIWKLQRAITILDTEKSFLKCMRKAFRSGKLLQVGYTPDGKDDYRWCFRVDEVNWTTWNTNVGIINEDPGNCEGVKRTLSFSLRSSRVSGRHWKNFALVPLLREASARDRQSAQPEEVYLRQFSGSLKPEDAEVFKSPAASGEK
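Cells expressing TRPV1 were dye-loaded with Fluo-8 and read kinetically: 10 s baseline, 3 min after compound (agonist portion), then 2 min after EC20 capsaicin (allosteric enhancer portion). Calcium-bound dye fluorescence at 480/520 nm.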
TRPML1 inh: inhibitors of human TRPML1 channel; activity change, negative = inhibition, % (test concentration not listed); 390,000 compounds, 0.02% hits; TRPML1-inducible cells, Ca2+ dye fluorescence, FDSS; active compounds read low; inhibition of EC80 agonist-evoked calcium signal; in the data active means activity change below about -50%; inconclusive means about -30% to -50%; inactive means above about -30%;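 also: stimulus is agonist 54-4 at its EC80 concentration; % is scaled to controls: 0 for no effect and ±100 for the full control effect; compound concentration not given in the record; the text of the record puts the active cut at -80%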
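Calcium fluorescence in TRPML1-DL cells induced overnight with Tet: a 110 s read after compound pin addition, then a 110 s antagonist read after challenge with 54-4 at 4 uM final (EC80).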
gsp agonist: gsp mutant agonism. 340,000 compounds, 0.13% hits. gsp mutant cells, cAMP HTRF, 30 min; control for the full effect not named in the record. Potency, µM (top dose mostly 76.9 µM), for inactives: top-dose activation (cAMP increase), hits mostly activators; active = well fitted activation curve with a large enough effect; inconclusive = small, poorly fitted or top-dose-only effect, or another doubt; inactive = no such curve, though single readings can be large or run the other way; cell line not stated here;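 also: phosphodiesterase inhibitor Ro 20-1724 added with compounds to block cAMP breakdown; potency is read from the fitted curve at half-maximal effect; nearly all actives have a fitted effect of over 60% in size; about a fifth of the inactives were tested at one dose only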
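Cells stably selected in G418 were plated at 2000/well, grown 16-24 hr, then given compounds in DMSO with the PDE inhibitor […] (300 uM solution added) for 30 min at 37C; cAMP was read by HTRF.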
gsp antagonist: antagonists of gsp mutant (McCune-Albright syndrome); gsp-mutant cells, cAMP HTRF, 30 min; control for the full effect not named in the record; Potency, µM (series often up to 76.9 µM), for inactives: at the top dose activity change, negative = inhibition, most hits filed as inhibitors; 340,000 compounds, 0.4% hits; active = falling curve of any shape with a large fitted effect; inconclusive = falling curve, mostly with a smaller effect; inactive = flat or rising curve; cell line not stated here;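 also: intracellular cAMP measured with PDE inhibitor Ro 20-1724 present during compound exposure; potency is read from the fitted curve at half-maximal effect; % is scaled to controls: 0 for no effect and ±100 for the full control effect; nearly all actives have a fitted effect of over 65% in size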
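G418-selected cells were plated in DMEM/10% FBS for 16-24 h at 37C, then treated with compounds plus the PDE inhibitor […] (300 uM solution added) for 30 min at 37C. Intracellular cAMP was measured by HTRF after 30 min lysis at room temperature.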
ClpP mod: qHTS Assay for Activators of ClpP; 340,000 compounds, 1.9% hits; Potency, µM (highest dose often 57.5 µM), for inactives: at the top dose activity change, negative = active; purified B. subtilis ClpP, FRET peptide cleavage, 20 min; ATP-dependent Clp protease proteolytic subunit (Bacillus subtilis (strain 168)), P80244; AID 651965, 2013; active = well fitted falling curve with a large enough effect; inconclusive = small, poorly fitted or top-dose-only effect; inactive = no such curve, though single readings can be large or run the other way; also: potency is read from the fitted curve at half-maximal effect; the source files actives as falling curves though it sought activators and does not explain the sign; nearly all actives have a fitted effect of over 65% in size; many hits overshoot -100%
Target sequence (P80244 whole entry, looked up): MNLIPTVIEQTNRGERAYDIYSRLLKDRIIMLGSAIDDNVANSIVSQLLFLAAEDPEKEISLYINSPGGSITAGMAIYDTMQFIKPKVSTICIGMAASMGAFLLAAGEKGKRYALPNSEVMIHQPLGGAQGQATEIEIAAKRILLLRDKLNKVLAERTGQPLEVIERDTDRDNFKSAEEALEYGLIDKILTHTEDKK
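Purified B. subtilis ClpP, 10 microg/mL final in Tris/HCl pH8 with KCl, BSA, glycerol and Tween-20, cleaved an Abz/nitrotyrosine-quenched decapeptide. Fluorescence (ex 320, em 430) was read at 0 and 20 min at room temperature. Delta was normalized to 5.8 microM ADEP and DMSO/no-enzyme controls.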
Menin MLL FP FL: inhibitors of human menin-MLL interaction, wild-type MLL peptide; FP activity change, % at 61.4 µM; AID 1766; 290,000 tested, under 10 active; Fluorescence polarization, fluorescein-MLL peptide displacement from menin; inconclusive = falling polarisation curve, or a change in total fluorescence; inactive = total fluorescence flat and polarisation flat or rising; no compound was filed as active; the % refers to the polarisation; negative = inhibition;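 also: % of control where 0% means no effect; inhibitors lower the polarisation; unlabelled MLL peptide was the positive control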
Active calls of the source: *; ? = inconclusive; . = not tested or not shown; & = joins results of further samples; [ ] = another dose, or the depositor's remark.

SMILES	Sfp inh	TRPV1 potentiator	TRPML1 inh	gsp agonist	gsp antagonist	ClpP mod	Menin MLL FP FL
Cc1ccc(S(=O)(=O)N2CCC3(CC2)OCCO3)s1	22%	-14	-20	?	6%	-0.4%	.
Cc1ccc(NC(=O)CN(C)C(C)C(=O)N2CC(C)CC(C)C2)cc1 (configuration not stated)	.	-11	-3	-68%[inhibitor]	-2%	0.5%	.
CC(=O)Nc1ccc(NC(=O)C(C)OC(=O)CC2CCCC2)cc1 (configuration not stated)	.	-6	3	-55%[inhibitor]	5%	-1.1%	.
CC(C)(C)NC(=O)Cn1cnc2cc([N+](=O)[O-])ccc2c1=O	13%	14	7	11%[15.4 µM]	-6%	.	5.5
Cc1cc(C(=O)OCC(=O)Nc2cccc(S(=O)(=O)N(C)C)c2)c2ccccc2n1	11%	-22	51	2%[15.4 µM]	-34%	.	2.8
Cc1cccc(C)c1NC(=S)NC(=O)c1ccccc1F	7%	-1	-21	13%	-3%	-1.3%	4.9
CCOc1ccccc1OCC(=O)Nc1c(C)n(C)n(-c2ccccc2)c1=O	.	-11	2	-9%	6%	2.5%	.
CC(C)(c1ccccc1)c1ccc(OCC(O)CNC2CCN(Cc3ccccc3)CC2)cc1 (configuration not stated)	79µM*	4	22	-15%[15.4 µM]	15%	.	0.3
COc1ccc(C(=O)NNC(=O)OC(C)(C)C)cc1	18%	-5	.	0%	7%	0.8%	-1.3
CCOC(=O)c1sc(NC(=O)c2ccco2)c(C#N)c1C	-16%	-14	16	-72%[inhibitor]	-15%	-7.1%	3.7
CCC(C)(C)NC(=O)/C=C/c1ccccc1[N+](=O)[O-]	-13%	1	-24	1%[15.4 µM]	1%	.	-6.0
C[C@H](CO)N1C[C@H](C)[C@@H](CN(C)C(=O)NC2CCCCC2)Oc2ccc(NS(C)(=O)=O)cc2C1=O	.	.	-7	.	-2%	-3.0%	.
O=C(c1cccc(OC2CCN(C3CCCC3)CC2)c1)N1CCCCCCC1	18%	1	13	11%[15.4 µM]	10%	0.8%	-1.8
O=C(NCc1ccc[n+](CCCCS(=O)(=O)[O-])c1)c1ccc(OC(F)F)cc1	19%	-4	.	.	.	.	0.0
C[C@@H](NC(=O)[C@@H]1Cc2ccccc2CN1)C(=O)Nc1ccc2c(c1)OCO2	12%	0	.	.	-8%	-0.5%	1.2
COc1ccc(N(C)S(=O)(=O)c2ccc3c(c2)NC(=O)CO3)c(OC)c1	24%	-2	-10	?	-2%	-0.6%	.
O=C(Cn1cncn1)c1ccccc1	3%	-8	.	24%	6%	0.0%	-1.3
O=C(NC1CCN(C(=O)Nc2ccccc2)CC1)C1CCCCC1	8%	26	-4	19%	6%	-4.6%	0.3
O=C(NCCCn1ccnc1)C(=O)NC1CCCCC1	22%	?	20	10%[15.4 µM]	-7%	.	2.2
CCN(CC)S(=O)(=O)c1cc(C)ccc1NC(=S)Nc1cccnc1	-8%	-27	-5	?	-3%	.	-4.7
Cc1cccc(CC(=O)N2CCC(N3CCC(C(=O)N4CCOCC4)CC3)CC2)c1	21%	-4	9	-11%[15.4 µM]	11%	-0.4%	-8.6
Cc1cccc(N(C(=O)Nc2ccc(Cl)cc2)C2=NCC(C)S2)n1 (configuration not stated)	-2%	?	-19	-9%[15.4 µM]	19%	.	4.0
CCSc1nc2sc3c(c2c(=O)n1-c1ccccc1)CCN(C)C3	-9%	1	-5	-49%[inhibitor]	-1%	-25%	9.8
O=c1cc(-c2ccccc2[N+](=O)[O-])oc2ccccc12	23%	-4	8	-13%[15.4 µM]	12%	.	-0.5
O=C1ON=C(c2ccc(Cl)c([N+](=O)[O-])c2)/C1=C/c1cccc([N+](=O)[O-])c1O	.	11	2	-1%	-2%	1.2%	.
COc1ccc(-n2c(SCC(=O)Nc3nccs3)nnc2-c2ccccc2)cc1	-2%	10	38	-16%	-4%	1.1%	-0.1
CCc1ccc(C(=O)OCC(=O)Nc2cccc(S(=O)(=O)NC3=NCCCCC3)c2)cc1	7%	15	14	1%	-2%	0.7%	0.5
Cc1cccc(NC(=O)CN2C(=O)NC(Cc3ccccc3)C2=O)c1 (configuration not stated)	18%	3	1	-18%	-1%	-0.9%	-0.5
O=C(NCc1ccc(Cl)cc1)C1CCN(S(=O)(=O)c2cc([N+](=O)[O-])ccc2Cl)CC1	-29%	-16	53	-21%	-18%	-0.7%	-0.2
OC1(c2ccccc2)c2ccccc2-c2ncccc21 (configuration not stated)	15%	0	4	-3%[15.4 µM]	.	.	2.8
Cc1oc(-c2ccc(Cl)cc2)nc1CS(=O)CC(=O)NC1CCCC1 (configuration not stated)	-12%	0	3	17%	7%	-12%	.
COc1ccc(NC(=O)CN(C)C(=O)CCCc2nc3ccccc3c(=O)[nH]2)cc1	.	-4	-1	?	11%	0.6%	.
CCCCn1c(N)c(N(CC(C)C)C(=O)c2ccc(C)c(S(=O)(=O)N3CCCCC3)c2)c(=O)[nH]c1=O	.	1	-1	-6%[15.4 µM]	2%	.	.
CC(C)CCNC(=O)CN(C(=O)CCC(=O)Nc1nccs1)c1ccc2c(c1)OCCO2	-15%	0	-7	12%	6%	.	-5.7
O=C1C2C(C(=O)N1Cc1cccnc1)C1C=CC2C12CC2 (configuration not stated)	1%	11	2	-7%	-1%	-0.5%	1.8
CCOC(=O)/C=C1\SCC(=O)N1CC(O)CN1C(=O)CS/C1=C\C(=O)OCC	26%	-2	8	-5%	1%	-1.3%	0.2
O=C(Nc1c(-c2ccccc2)nc2c(Br)cc(Br)cn12)c1ccco1	16%	-1	7	16%	-10%	-0.1%	1.7
CC1CCc2c(nc3ncnn3c2NCCN(C)C)C1 (configuration not stated)	-10%	5	5	14%[15.4 µM]	-8%	0.8%	-2.2
CC(=O)c1ccccc1Oc1ncnc(N)c1[N+](=O)[O-]	9%	3	21	2%	7%	-1.9%	-2.6
CCOc1ccccc1NC(=O)Nc1ccc(OC)nc1	3%	-7	-6	12%[15.4 µM]	4%	-1.5%	?
Cc1ccc(C(=O)OCC(=O)NC(=O)c2ccc(C(C)(C)C)cc2)c(O)c1	.	-5	-10	-8%	-1%	4.4%	.
CC(C)CCn1nnnc1CN1CCN(C(c2ccccc2)c2ccccc2)CC1	-16%	2	-18	-23%	-18%	-0.3%	0.0
Cc1ccc(/C=N/NC(=O)c2nnn(-c3nonc3N)c2C(C)C)s1	11%	-19	0	6%	-29%	0.3%	.
O=C(N/C(=C\c1ccccc1)C(=O)N1CCOCC1)c1ccccc1Br	5%	3	8	37%	9%	1.3%	-6.5
CCOC(=O)Nc1ccc2c(c1)nc(CN1CCCCC1)n2C	14%	-1	.	.	.	.	-5.8
Nc1cccc2c1C(=O)N(Cc1cccc(Cl)c1)C2=O	-6%	20	2	12%[15.4 µM]	-4%	.	-23
O=C(CCNC(=O)c1ccc(Br)cc1)NCC(c1ccco1)N1CCCCC1 (configuration not stated)	.	4	42	5%	2%	-0.2%	.
CCn1cc(C(=O)O)c(=O)c2cnc(N3CCN(C(=S)Nc4ccccc4)CC3)nc21	2%	1	6	22%[15.4 µM]	-9%	.	2.1
CCOc1ccccc1C=NNc1ccc([N+](=O)[O-])cn1	.	.	12	-1%[15.4 µM]	13%	-6.9%	.
Cc1cc(S(=O)(=O)Cc2noc(-c3c(C)noc3C)n2)c(C)cc1Cl	8%	11	-14	9%[15.4 µM]	-10%	.	4.5

New compounds follow:
SMILES	Sfp inh	TRPV1 potentiator	TRPML1 inh	gsp agonist	gsp antagonist	ClpP mod	Menin MLL FP FL
Oc1ccc2ccccc2c1CN1CCCCC1	.	.	2	-14%	-6%	.	.
COC(=O)COc1ccc(Oc2cc(C)nc(SC)n2)nn1	14%	-4	-7	15%	1%	1.1%	-2.1
CC1CCc2c(cnc3ncnn23)C1 (configuration not stated)	19%	-11	-2	0%	17%	-1.0%	-1.0
CCN(CC)CC(=O)Nc1c(Br)ccc2c1OCO2	8%	14	-3	-4%	-3%	-3.6%	2.2
O=S(=O)(Nc1cccc(-c2ccc(N3CCCCCC3)nn2)c1)c1ccc(F)cc1	0%	-13	5&6	?	?	-4.8%&-2.2%	4.8
O=C(NNc1ccccc1)Nc1ccccc1F	6%	6	-15	-9%[15.4 µM]	7%	.	-10
O=C1c2ccsc2SCCN1Cc1ccccc1Cl	3%	2	-3	?	-10%	1.2%	1.8
CC1=NN(c2ccc(C)c(C)c2)C(=O)/C1=C\C=C\c1ccc([N+](=O)[O-])o1	1%	15	-8	-6%	-10%	0.2%	?
Cc1[nH]c(C(=O)O)c(C#N)c1C(=O)c1ccccc1	-4%	-3	-2	-26%	3%	0.1%	-0.8
O=C(CN1CCN(c2ccccn2)CC1)Nc1cccc(C(F)(F)F)c1	9%	-19	-17	16%	9%	-19%	0.5
CC(C)OC(=O)CSc1nnc(-c2ccccn2)n1-c1ccccc1	-8%	-9	-11	-37%[inhibitor]	24%	1.5%	1.6
O=C(CN1CCN(c2ccc(F)cc2)CC1)c1ccc2c(c1)OCO2	-21%	5	8	-1%	10%	1.0%	2.3
CCOc1ccc(/C(O)=C2/C(=O)C(=O)N(c3ncccn3)C2c2ccc(C)cc2)cc1 (configuration not stated)	15%	5	-20	11%[15.4 µM]	-5%	.	1.5
CCOC(=O)C1CCCN(C(=O)c2ccc(CS(=O)(=O)c3ccc(C)cc3)o2)C1 (configuration not stated)	-3%	?	-1	?	-5%	-0.9%	1.4
Cc1cc(C)c2cc(C(=O)Nc3ccc(C)c(F)c3)[nH]c2c1	-4%	-8	-1	25%	-4%	-14%	12
COc1ccc(-c2cc(C(=O)NCCCN3CCOCC3)c3ccccc3n2)cc1OC	.	8	-1	8%	2%	-15%	.
COC(=O)Cc1c(C)c2ccc(OC(=O)c3ccccc3)cc2oc1=O	-6%	-10	25	-12%	-18%	171%	4.5
Cc1cc2cc(CNC(=O)CCC(=O)O)ccc2n1C	-18%	-4	-1	?	3%	-16%	-20
Cc1cccc(NC(=O)Nc2cc(C)cc(C)n2)c1	17%	-1	21	-2%	9%	1.4%	-4.1

Screening results as filed in PubChem BioAssay.
